# RanGTP-Imp inh – inhibitors of RanGTP-importin-beta interaction, primary screen, biochemical, FRET, CFP-Ran, YFP-importin-beta, homogeneous; cell-free CFP-Ran/YFP-importin-beta FRET ratio; inhibition, % (no concentration beside the values); 300,000 compounds, 1.1% hits; AID 2216;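 active = most replicates above 15%; inconclusive = exactly half above 15%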;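 note: 0% = DMSO wells and 100% = Ran loaded with GDP instead of GTP; wells of about 40 µL received 100 nL stock; the first replicate is given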
# T cruzi repl – blocks replication of Trypanosoma cruzi | inhibition, % (test concentration not listed) | 300,000 compounds, 1.4% hits | T. cruzi beta-gal in NIH3T3, luminescence, 90 h | AID 1885;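 active = mean inhibition across valid replicates above about 55%, limit read from the data; inconclusive = mean below that limit but half or more replicates reach it; inactive = mean below it, under half of replicates reach it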;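 note: signal also drops with host cell toxicity which is not excluded here; 0% = plate median of DMSO wells and 100% = zero luminescence signal; higher percent means less beta-gal luminescence so fewer parasites; stock transfer was 50 nL into about 50 µL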
# FGF22 binding – binders of recombinant human FGF22 by thermal shift; Q9HCT0; SYPRO orange fluorescence; percent of sucrose octasulfate shift, DMSO zero; calls only at 9.99 µM; 340,000 compounds, 1.5% hits;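 active = melting point raised past a set limit in the mean and every replicate; inconclusive = no clear call; three in four hits are not shown here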
# Target sequence (Q9HCT0 whole entry, looked up): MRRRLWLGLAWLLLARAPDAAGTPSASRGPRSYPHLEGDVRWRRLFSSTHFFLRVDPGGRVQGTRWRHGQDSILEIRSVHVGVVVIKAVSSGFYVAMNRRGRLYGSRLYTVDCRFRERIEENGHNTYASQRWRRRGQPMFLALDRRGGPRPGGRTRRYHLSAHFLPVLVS
# AF4-AF9 inh – inhibitors of human MLL-AF4/AF9 interaction; P42568; AlphaScreen, biotin-AF4 peptide binding to FLAG-AF9; inhibition, % at 10 µM; 350,000 compounds, 0.47% hits;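 active = every replicate reaching a set inhibition limit, whatever the replicate mean, cut at about 25% in these data; inconclusive = mean inhibition reaches that limit but some replicates miss it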;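 note: 0% = plate neutral control median and 100% = total signal loss; the record names both 10 and 1 µM as test concentration; the first replicate is given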
# ALR H2O2 inh – human ALR oxidase inhibition via reduced H2O2; P55789; inhibition, % (no concentration beside the values); 290,000 compounds, 3.8% hits; purified ALR, DTT oxidation, H2O2 HRP-luminol luminescence;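 active = mean and each replicate at 75% or more; inconclusive = only one of the two met; inactive = neither met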;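 note: stock transfer was 7.5 nL into about 7.5 µL; 0% = neutral wells and 100% = wells with inactivated enzyme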
# Target sequence (P55789 whole entry, looked up): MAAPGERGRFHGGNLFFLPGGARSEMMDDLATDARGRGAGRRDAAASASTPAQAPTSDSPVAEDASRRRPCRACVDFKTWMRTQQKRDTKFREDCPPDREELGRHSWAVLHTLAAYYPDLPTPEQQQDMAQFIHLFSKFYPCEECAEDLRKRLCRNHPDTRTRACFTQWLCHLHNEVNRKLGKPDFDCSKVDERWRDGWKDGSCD
# Beta cell apopt – blocks beta cell apoptosis. INS-1E cytokine-induced death, ATP luminescence, 48 h; percent of positive-control rescue, neutral wells zero. 300,000 compounds, 0.8% hits. protection from apoptosis, % (no concentration beside the values);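 active = all replicates at 75% or more, or half of them and the mean; inconclusive = half reach 75% but not the mean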;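 note: 0% = cytokine-treated negative control wells and 100% = positive control rescue; higher means more ATP so stronger rescue from cytokine killing; wells of about 40 µL received 100 nL stock; the first replicate is given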
# Ecoli rRNA inh – inhibitors of bacterial rRNA selective over humanized ribosomes. AID 720706. 350,000 compounds, 1.6% hits. E. coli WT GFP vs humanized-ribosome RFP mutants, fluorescence, 24 h; stronger effect = lower value; DMSO median 0, no signal -100. GFP signal change (wild-type ribosome), % (no concentration beside the values);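 active = significant combined selectivity score with lowered wild-type GFP, culture density cut under 30%, mutant RFP and density less affected; inactive = any of these conditions unmet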; note: one replicate is shown; some compounds called inactive have numbers as strong as hits
# Calb FLC – affects C. albicans growth with fluconazole | C. albicans CaCi-2 (fluconazole-resistant clinical isolate) + fluconazole, Alamar Blue growth, 48 h | 300,000 compounds, 0.57% hits | growth inhibition, % (test concentration not listed);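 active = most replicates above 75%; inconclusive = exactly half above 75%; inactive = most below 75%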;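 note: all wells also contain fluconazole at 8 µg/ml as a sub-toxic cotreatment; 0% = median of DMSO wells and 100% = median of geldanamycin control wells; wells of about 8 µL received 7.5 nL stock; the first replicate is given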
# Ecoli rRNA inh OD600 – second read-out of Ecoli rRNA inh, no call of its own (marks repeat the call); OD600 change, %; measured here: OD600 growth;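 optical density of the mix in the first replicate; 0 = DMSO median and -100 = no signal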
# Ecoli rRNA inh RFP – second read-out of Ecoli rRNA inh, no call of its own (marks repeat the call); RFP signal change, %; measured here: RFP humanized mutant strains;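 first replicate; 0 = DMSO median and -100 = no signal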
# Numbers without * were called inactive; i = inactive; ? = inconclusive; . = not tested or not shown.
item | Compound | FGF22 binding | Beta cell apopt | Ecoli rRNA inh RFP | AF4-AF9 inh | RanGTP-Imp inh | ALR H2O2 inh | T cruzi repl | Ecoli rRNA inh OD600 | Ecoli rRNA inh | Calb FLC
1 | CN(C)C1=NC[C@H](Cc2ccccc2)N1CC1CCCCC1 | i | -4.9 | 1.7 | 2.1 | . | . | . | -16.6 | -13.3 | .
2 | COC(=O)c1cc(S(=O)(=O)N2CCC(c3ccccc3)C2)c[nH]1 (stereo not given) | i | 7.1 | 0.3 | 2.1 | 1.7 | -12.8 | -10.4 | 6.6 | 1.2 | 55.5
3 | CCC(OC(=O)CCc1nc2ccccc2[nH]c1=O)C(=O)c1ccccc1 (stereo not given) | . | -3.6 | . | . | -8.7 | 0.4 | -7.7 | . | . | ?
4 | C/C=C\C=C/C(=O)Nc1cccc(C2=NOC3(C2)C[C@H](C(N)=O)N(C(=O)CC)C3)c1 (stereo not given in full) | i | -7.4 | -2.9 | -4.1 | 2.2 | 42.0 | -28.0 | 12.9 | 2.5 | 3.5
5 | O=C(Cc1c(O)c2ccccc2oc1=O)c1ccc(F)cc1 | i | 2.9 | 5.0 | 47.4* | . | . | . | 12.8 | 5.3 | .
6 | COc1cc(NC(=O)c2ccc(C)cc2)c(OC)cc1NC(=O)CN1CCOCC1 | . | -2.7 | . | . | ? | -31.7 | 1.0 | . | . | 11.9
7 | CCOc1ccc(CNCCc2ccc(S(N)(=O)=O)cc2)cc1 | i | . | 1.9 | 0.1 | -3.6 | -20.7 | 9.4 | 13.9 | 14.9 | 6.0
8 | CCOC(=O)N1CCN(C(=O)Cn2cc3c(n2)CCCC3)CC1 | . | -2.5 | . | . | -1.2 | -3.8 | -19.8 | . | . | 3.1
9 | COC(=O)c1cc(C)sc1NC(=O)CCCC(=O)O | . | 6.2 | . | . | 0.9 | -15.6 | 0.2 | . | . | 28.6
10 | CCOC(=O)CSc1nc(C)c(C(C)=O)cc1C(N)=O | i | -2.5 | -1.8 | -3.5 | ? | -4.3 | -2.1 | 9.1 | 8.9 | 19.9
11 | O=C(c1ccccc1)c1cccn1CC(=O)N1CCN(c2ccc(F)cc2)CC1 | . | 1.9 | . | . | 7.7 | 7.9 | 7.9 | . | . | -0.3
12 | Cc1nc(-c2ccc(S(=O)(=O)NCC3CCN(C(=O)OC(C)(C)C)CC3)s2)cs1 | i | -7.9 | -1.3 | . | -3.2 | -6.1 | 12.0 | -1.2 | -15.0 | -11.3
13 | Cc1cc(C)c(-c2csc(NC(=O)/C=C/c3cccs3)n2)c(C)c1 | . | 7.9 | . | . | 5.7 | -10.2 | 12.5 | . | . | 1.2
14 | Cc1cc(NC(=O)Cn2nnc3sc4c(c3c2=O)CCCC4)no1 | . | -1.1 | -2.8 | . | -2.6 | -51.4 | 11.6 | 5.6 | 4.3 | -11.7
15 | Cc1cc(NC(=O)Nc2ccc(F)cc2)no1 | . | -7.6 | . | . | -4.0 | 31.0 | -0.9 | . | . | -23.5
16 | O=C(NNC(=O)c1ccccc1O)c1ccc(S(=O)(=O)Nc2ccccc2F)cc1 | i | 27.4 | -1.3 | 12.2 | 7.5 | 34.0 | -4.5 | -0.8 | 0.5 | -3.3
17 | COc1ccc(-c2nnn(Cc3ccccc3)n2)cc1 | i | . | 2.6 | -7.2 | 5.5 | -6.0 | -4.2 | -11.5 | 3.4 | -46.5
18 | CC(=O)Nc1ccc(NC(=O)CSc2nc3ccccc3o2)cc1 | i | 0.5 | -1.7 | -10.7 | -0.3 | -0.5 | 7.4 | 2.3 | -7.0 | -10.8
19 | COc1ccc([C@H]2CC(=O)C=C(c3cc(C(F)(F)F)cc(C(F)(F)F)c3)C2)cc1 | i | 6.3 | -9.4 | -5.5 | . | 0.0 | . | 6.2 | 13.4 | .
20 | O=C(Nc1ccc2oc(-c3ccccc3Cl)nc2c1)c1ncn[nH]1 | i | 2.3 | 2.4 | 4.7 | 2.9 | -6.0 | -7.8 | -3.6 | -7.0 | 45.7
21 | CCCCc1ccc(NC(=O)N2CCN(c3cc(C)nc4ccccc34)CC2)c(C)c1 | . | 0.2 | . | . | ? | -3.7 | 36.0 | . | . | 32.3
22 | O=C(Nc1ccc(C2CCCCC2)cc1)C1CCCN(c2ncccn2)C1 (stereo not given) | . | -0.6 | -2.6 | . | 1.1 | . | -0.9 | 7.8 | 6.9 | -1.0
23 | CCOc1ccc(C(=O)NCCCN2CCOCC2)cc1OCC | . | -16.8 | -3.4 | 0.3 | 0.1 | -6.0 | -10.8 | 7.2 | 10.7 | 1.1
24 | CSc1nc(N)n2nc(C(C)(C)C)cc2n1 | i | -4.4 | 0.1 | . | ? | -4.7 | 2.4 | 1.8 | 2.1 | -2.3
25 | O=C(Nc1nnc(SCc2ccc(F)cc2)s1)c1ccco1 | . | 0.4 | . | . | 4.0 | -1.4 | 9.3 | . | . | 18.7
26 | COc1cc(OC)c(C2NC(=O)CCC2[N+](=O)[O-])cc1OC (stereo not given) | i | -5.4 | 3.2 | 2.6 | 2.4 | . | -13.8 | 14.8 | 19.7 | -2.4
27 | Cc1nc2ccccc2c(=O)n1NC(=O)c1cccnc1Cl | i | -3.1 | -1.7 | -0.8 | -1.0 | -3.1 | -10.2 | 0.6 | 1.3 | 6.4
28 | Cn1nnnc1Sc1ncnc2scc(-c3ccc[nH]3)c12 | i | -61.1 | 4.8 | 3.0 | . | 94.3* | . | 7.1 | 7.7 | .
29 | Cc1ccc(S(=O)(=O)NC2CCCCC2)cc1C(=O)N1CCC(C(N)=O)CC1 | i | 0.3 | 4.3 | -1.1 | . | 0.8 | . | 9.7 | 20.0 | .

# Sorted by length of the SMILES (high to low): 14 of the compounds above.
item | Compound | FGF22 binding | Beta cell apopt | Ecoli rRNA inh RFP | AF4-AF9 inh | RanGTP-Imp inh | ALR H2O2 inh | T cruzi repl | Ecoli rRNA inh OD600 | Ecoli rRNA inh | Calb FLC
12 | Cc1nc(-c2ccc(S(=O)(=O)NCC3CCN(C(=O)OC(C)(C)C)CC3)s2)cs1 | i | -7.9 | -1.3 | . | -3.2 | -6.1 | 12.0 | -1.2 | -15.0 | -11.3
21 | CCCCc1ccc(NC(=O)N2CCN(c3cc(C)nc4ccccc34)CC2)c(C)c1 | . | 0.2 | . | . | ? | -3.7 | 36.0 | . | . | 32.3
6 | COc1cc(NC(=O)c2ccc(C)cc2)c(OC)cc1NC(=O)CN1CCOCC1 | . | -2.7 | . | . | ? | -31.7 | 1.0 | . | . | 11.9
11 | O=C(c1ccccc1)c1cccn1CC(=O)N1CCN(c2ccc(F)cc2)CC1 | . | 1.9 | . | . | 7.7 | 7.9 | 7.9 | . | . | -0.3
3 | CCC(OC(=O)CCc1nc2ccccc2[nH]c1=O)C(=O)c1ccccc1 (stereo not given) | . | -3.6 | . | . | -8.7 | 0.4 | -7.7 | . | . | ?
20 | O=C(Nc1ccc2oc(-c3ccccc3Cl)nc2c1)c1ncn[nH]1 | i | 2.3 | 2.4 | 4.7 | 2.9 | -6.0 | -7.8 | -3.6 | -7.0 | 45.7
14 | Cc1cc(NC(=O)Cn2nnc3sc4c(c3c2=O)CCCC4)no1 | . | -1.1 | -2.8 | . | -2.6 | -51.4 | 11.6 | 5.6 | 4.3 | -11.7
8 | CCOC(=O)N1CCN(C(=O)Cn2cc3c(n2)CCCC3)CC1 | . | -2.5 | . | . | -1.2 | -3.8 | -19.8 | . | . | 3.1
1 | CN(C)C1=NC[C@H](Cc2ccccc2)N1CC1CCCCC1 | i | -4.9 | 1.7 | 2.1 | . | . | . | -16.6 | -13.3 | .
5 | O=C(Cc1c(O)c2ccccc2oc1=O)c1ccc(F)cc1 | i | 2.9 | 5.0 | 47.4* | . | . | . | 12.8 | 5.3 | .
28 | Cn1nnnc1Sc1ncnc2scc(-c3ccc[nH]3)c12 | i | -61.1 | 4.8 | 3.0 | . | 94.3* | . | 7.1 | 7.7 | .
23 | CCOc1ccc(C(=O)NCCCN2CCOCC2)cc1OCC | . | -16.8 | -3.4 | 0.3 | 0.1 | -6.0 | -10.8 | 7.2 | 10.7 | 1.1
17 | COc1ccc(-c2nnn(Cc3ccccc3)n2)cc1 | i | . | 2.6 | -7.2 | 5.5 | -6.0 | -4.2 | -11.5 | 3.4 | -46.5
15 | Cc1cc(NC(=O)Nc2ccc(F)cc2)no1 | . | -7.6 | . | . | -4.0 | 31.0 | -0.9 | . | . | -23.5

# Some of the compounds tested; the hit share may differ from the screen's.
